LANA-H2B inh: blocks KSHV LANA binding to histone H2A/H2B; inhibition, % (test concentration not listed); cell-free LANA-H2A/H2B peptide, fluorescence polarization; AID 2629; 0.6% of 320,000 active; in the data active means inhibition mostly above about 10%, no sharp cut-off; inactive means mostly below about 6.7%;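 further: stock transfer was 7.5 nL into about 10 µL; 0% = median of vehicle wells and 100% = median of positive control wells; one replicate is shown; the record names a cut of 25% in any replicate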
Bfl-1 A1 inh: inhibitors of the anti-apoptotic protein A1, read as caspase activation; MEF A1-2A-BIM cells, Caspase-Glo 3/7 luminescence, 3 h; percent of clofoctol response, vehicle zero; caspase activation, % (test concentration not listed); 0.066% of 330,000 active; AID 2462;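 active means over half of replicate activation scores above 10%, or exactly half above 10 with the replicate mean above 10; inconclusive means replicate mean below 10 yet half the replicates above 10; inactive means over half of replicates below 10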;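 further: wells of about 30 µL received 50 nL stock; many hits fall short of the cut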
Vif A3G: HIV-1 Vif–A3G interaction blockers – biochemical, TR-FRET, GST-Vif 1-94, biotin-A3G peptide, dose response retest, primary screen (AID 1117319). inhibition, %; hits with a dose series show IC50 in µM. TR-FRET GST-Vif / biotin-A3G peptide binding; higher % means a stronger effect; test concentration not given here; strong numbers were not always called active. 0.57% of 260,000 active;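 active means above the screen mean plus three standard deviations and confirmed in dose response; inconclusive means results disagree or hit not tested in dose response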;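 further: Vif residues 1-94 fused to GST binding biotinylated APOBEC3G peptide 110-148; 0% = full assay without inhibitor and 100% = GST in place of GST-Vif; retest series ran down from 100 µM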
RanGTP-Imp inh: disruptors of Ran-importin-beta complex formation – biochemical, FRET, CFP-Ran, YFP-importin-beta, homogeneous, primary screen; 1.1% of 300,000 active; inhibition, % (no concentration beside the values); cell-free CFP-Ran/YFP-importin-beta FRET ratio; AID 2216;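 active means most replicates above 15%; inconclusive means exactly half above 15%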;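 further: 0% = DMSO wells and 100% = Ran loaded with GDP instead of GTP; wells of about 40 µL received 100 nL stock; the first replicate is given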
Calb FLC: C. albicans growth modulation with fluconazole | C. albicans CaCi-2 (fluconazole-resistant clinical isolate) + fluconazole, Alamar Blue growth, 48 h | growth inhibition, % (concentration not given with the values) | 0.57% of 300,000 active | AID 1979;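 active means most replicates above 75%; inconclusive means exactly half above 75%; inactive means most below 75%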;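 further: all wells also contain fluconazole at 8 µg/ml as a sub-toxic cotreatment; 0% = median of DMSO wells and 100% = median of geldanamycin control wells; wells of about 8 µL received 7.5 nL stock; the first replicate is given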
Beta apoptosis: blocks beta cell apoptosis | INS-1E cytokine-induced death, ATP luminescence, 48 h; percent of positive-control rescue, neutral wells zero | 0.8% of 300,000 active | protection from apoptosis, % (no concentration beside the values);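 active means all replicates at 75% or more, or half of them and the mean; inconclusive means half reach 75% but not the mean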;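 further: 0% = cytokine-treated negative control wells and 100% = positive control rescue; higher means more ATP so stronger rescue from cytokine killing; wells of about 40 µL received 100 nL stock; the first replicate is given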
AF4-AF9 inh: MLL-AF4/AF9 protein interaction inhibition; P42568; AlphaScreen, biotin-AF4 peptide binding to FLAG-AF9; inhibition, % at 10 µM; 0.47% of 350,000 active; AID 651704;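 active means every replicate reaching a set inhibition limit, whatever the replicate mean, cut at about 25% in these data; inconclusive means mean inhibition reaches that limit but some replicates miss it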;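 further: 0% = plate neutral control median and 100% = total signal loss; the record names both 10 and 1 µM as test concentration; the first replicate is given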
Target sequence (P42568 whole entry, looked up): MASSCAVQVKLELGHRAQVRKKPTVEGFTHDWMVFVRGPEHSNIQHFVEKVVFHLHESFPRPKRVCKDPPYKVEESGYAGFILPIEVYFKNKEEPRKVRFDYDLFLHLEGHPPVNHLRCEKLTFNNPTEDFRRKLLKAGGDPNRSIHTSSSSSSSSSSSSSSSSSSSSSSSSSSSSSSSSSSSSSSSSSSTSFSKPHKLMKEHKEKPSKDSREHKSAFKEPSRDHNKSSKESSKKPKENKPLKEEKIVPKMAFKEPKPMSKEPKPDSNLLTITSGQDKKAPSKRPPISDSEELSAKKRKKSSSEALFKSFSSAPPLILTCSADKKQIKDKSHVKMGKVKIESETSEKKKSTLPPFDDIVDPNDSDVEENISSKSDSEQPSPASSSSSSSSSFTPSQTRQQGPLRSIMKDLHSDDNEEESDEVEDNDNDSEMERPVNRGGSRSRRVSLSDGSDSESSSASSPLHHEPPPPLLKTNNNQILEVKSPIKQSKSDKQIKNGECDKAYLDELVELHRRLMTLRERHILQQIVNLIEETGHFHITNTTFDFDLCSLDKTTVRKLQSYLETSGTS
T cruzi repl: blocks replication of Trypanosoma cruzi; T. cruzi beta-gal in NIH3T3, luminescence, 90 h; inhibition, % (test concentration not listed); 1.4% of 300,000 active;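 active means mean inhibition across valid replicates above about 55%, limit read from the data; inconclusive means mean below that limit but half or more replicates reach it; inactive means mean below it, under half of replicates reach it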;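 further: signal also drops with host cell toxicity which is not excluded here; 0% = plate median of DMSO wells and 100% = zero luminescence signal; higher percent means less beta-gal luminescence so fewer parasites; stock transfer was 50 nL into about 50 µL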
* hit, by the source's call; u = inconclusive; x = no result given; & = joins results of further samples.

Every second line gives: LANA-H2B inh | Bfl-1 A1 inh | Vif A3G | RanGTP-Imp inh | Calb FLC | Beta apoptosis | AF4-AF9 inh | T cruzi repl
COc1ccccc1NS(=O)(=O)c1cccc(C(=O)NCC(c2cccs2)N2CCOCC2)c1 (stereo not drawn)
    4.8 | -0.6 | 3% | x | x | 6 | 0.5 | x
Cc1ccc(C)c(OCCC(=O)N(C)CC(=O)Nc2c(C)cccc2C)c1
    -2.4 | 0.4 | x | x | x | -4 | 0.1 | x
COC(=O)C1Cc2c([nH]c3ccccc23)C(C(C)C)N1 (stereo not drawn)
    -3.4 | -0.3 | -3% | 1.5 | 5 | 2 | -2.1 | -15
Cc1ccc(-n2nc3c(=O)n(CCCC(=O)NCc4cccc(F)c4)nc(C)c3c2C)cc1
    2.4 | 0.5 | x | 0.0 | 20 | 11 | -4.5 | 5
Cc1cc(C(=O)N(C)CC(=O)Nc2ccccc2C(F)(F)F)c(C)o1
    6.2 | 0.0 | 14% | 3.1 | 4 | -8 | x | -9
CN(CCO)c1nc2c(c(=O)n(Cc3ccc(Cl)cc3)c(=O)n2C)n1C
    5.9 | -0.7 | x | 2.1 | 6 | -3 | 1.9 | -8
CN(C)CCNC(=S)Nc1cccc(Cl)c1
    -0.2 | 0.5 | 17% | 0.5 | 19 | 7 | x | 6
CCN1C(=O)[C@@H]2[C@@H](c3ccc(-c4ccc(C(C)=O)cc4)c(OC)c3)N3CCCC[C@@]3(C(=O)OC)[C@@H]2C1=O
    -2.6 | -0.4 | x | 1.4 | 11 | 13 | -8.0 | -11
CC1CCc2nc3sc4c(c3c(N)c2C1)CCCC4 (stereo not drawn)
    -4.8 | -1.2 | 3% | 0.9 | u | 2 | x | 25
COc1cc(CC(=O)N/N=C/c2ccc([N+](=O)[O-])cc2)c([N+](=O)[O-])cc1OC
    3.3 | 0.0 | 9% | 0.3 | -1 | 8 | 0.0 | -8
Cc1ccc(-c2c[n+]3c(n2-c2ccccc2)CCC3)cc1
    2.6 | 0.4 | 5% | 3.0 | -8 | 100* | -0.7 | 55*
Cc1cc(C(=O)COc2ncnc3sccc23)c(C)n1C
    0.2 | 0.2 | -2% | -1.7 | -4 | -14 | x | 29
COc1ccc(N2CCN(C(=O)CC34CC5CC(CC(C5)C3)C4)CC2)c([N+](=O)[O-])c1
    -2.4 | 0.7 | x | -0.2 | -15 | 24 | x | 30
COc1cccc(NC(=O)CN(C)C(=O)c2ccccc2-c2nc3ccccc3s2)c1
    1.1 | 0.7 | x | 1.6 | x | 6 | 2.6 | 5
COc1cccc(CCc2nc3ccccc3c(=O)n2N)c1
    1.3 | -1.8 | x | 3.4 | -3 | 1 | -2.4 | -7
CCn1cc(C(=O)N2CCN(c3ccccn3)CC2)c(=O)c2cc(S(=O)(=O)N3CCC(C)CC3)ccc21
    2.9 | 1.0 | -2% | -1.9 | -13 | 3 | 0.8 | 11
CCOc1ncccc1C(=O)Nc1cc(S(=O)(=O)N2CCOCC2)ccc1N1CCCC1
    -0.7 | -1.0 | -4% | -3.1 | 3 | 2 | 0.1 | 14
CCC1(C)CC2(CCCN(CCC(=O)c3ccccc3)C2)CCO1 (stereo not drawn)
    2.8 | 0.4 | x | 8.2 | 5 | -27 | -1.2 | -19
CC(=O)Nc1ccnc(-c2cccnc2)n1
    3.5 | -0.3 | 10% | -1.0 | 19 | 0 | -5.0 | -12
O=C(c1cc2cc(Cl)ccc2[nH]1)N1CCc2ccccc2C1
    -2.3 | -0.3 | x | -0.5 | 0 | 0 | -1.7 | -1
CC(=O)c1ccc(NC(=S)N2CCCC(C(F)(F)F)C2)cc1 (stereo not drawn)
    -0.8 | 1.0 | -4% | -1.5 | -17 | 2 | -0.4 | -5
CCC1SC(=Nc2cccc(C)c2)NC1=O (stereo not drawn)
    0.6 | -0.5 | x | 1.6 | -29 | -4 | -3.8 | 8
CC[n+]1c(/C=C/c2cc([N+](=O)[O-])ccc2O)ccc2ccccc21
    -2.0 | -1.8 | 9% | 1.7 | -4 | -8 | 13 | 52
CCOC(=O)c1c(NC(=O)CSc2nnc(C)c(=O)[nH]2)sc(C)c1C
    -1.0 | 2.0 | -5% | 5.7 | -22 | -6 | x | -9
COC(=O)CCC(=O)Nc1ccc2oc3c(c2c1)CCCC3
    2.9 | -0.2 | x | -9.7 | -4 | 1 | -1.0 | -2
O=C(Cn1cnc2c(cnn2-c2ccccc2)c1=O)N1CCOCC1
    -4.0 | 0.3 | 26% | x | x | -2 | -1.8 | x
CCOc1ccc(N(CC(=O)N2CCCCCC2)S(=O)(=O)c2ccc(F)cc2)cc1
    0.2 | 0.3 | x | 0.8 | -24 | -10 | -4.9 | 12
COc1ccc(CCNC(=O)c2cc(-c3ccncc3)nc3ccc(S(=O)(=O)N4CCOCC4)cc23)cc1OC
    -5.2 | 1.1 | -13% | 3.8 | 14 | x | -3.1 | 15
O=C(COc1ccc2oc(-c3ccccc3)cc(=O)c2c1)Nc1ccccc1
    1.1 | 2.1 | 4% | -2.7 | 0 | 0 | x | 1
COc1ccc(-c2nc(NC(=O)Cn3cnnn3)sc2C)cc1
    -2.5 | -0.7 | -1% | 5.4 | 9 | -4 | -2.3 | -3
COc1cc(/C=C2/N=C(c3ccccc3F)OC2=O)cc(Cl)c1OS(C)(=O)=O
    -1.1 | -0.2 | u | -0.8 | -20 | 0 | u | 1
CN(C)S(=O)(=O)c1ccc(NC(=O)CCCNC(=O)c2ccc(Cl)cc2)cc1
    2.8 | -0.1 | -2% | 6.0 | -8 | -5 | 1.6 | 6
COc1ccc(C(=O)NNC(=O)CN(C)S(=O)(=O)c2ccc(Cl)cc2)c(OC)c1OC
    1.5 | 0.6 | 0% | u | 4 | 0 | -9.4 | -11
Cc1ccc(C)n1-c1nccc(-c2cccs2)n1
    1.8 | -0.2 | 1% | -6.8 | -11 | -14 | x | 11
O=S(=O)(c1ccc(Cl)cc1)N1CCC(n2cnc3cc(C(F)(F)F)ccc32)CC1
    3.0 | -0.2 | -1% | -0.3 | 19 | 10 | x | 56*
CC1CCN(c2nc(-c3ccccc3)c(C#N)c(=O)[nH]2)CC1
    4.5 | -0.9 | -7% | 0.9 | 7 | 1 | x | -2
CCN(c1ccccc1)S(=O)(=O)c1ccc(C(=O)N2CCCC(C(F)(F)F)C2)cc1 (stereo not drawn)
    -5.9 | 1.2 | -5% | 0.8 | -7 | -1 | -0.2 | 7
COc1ccc(-n2ccnc2SCC(=O)Nc2ccccc2)cc1
    1.5 | 0.6 | -3% | 1.4 | -10 | 3 | x | -35
COc1ccc(N=c2ssnc2Cl)cc1
    -0.9 | 2.1 | u | -1.0 | 4 | -8 | x | 4
O=C(c1ccc(F)cc1)N1CCN(C2=NS(=O)(=O)c3ccccc32)CC1
    -2.0 | -0.9 | x | -0.3 | -3 | -1 | 0.7 | -24

Exported in markdown: part of the list above.
| smiles | LANA-H2B inh | Bfl-1 A1 inh | Vif A3G | RanGTP-Imp inh | Calb FLC | Beta apoptosis | AF4-AF9 inh | T cruzi repl |
| --- | --- | --- | --- | --- | --- | --- | --- | --- |
| COc1ccc(CCNC(=O)c2cc(-c3ccncc3)nc3ccc(S(=O)(=O)N4CCOCC4)cc23)cc1OC | -5.2 | 1.1 | -13% | 3.8 | 14 | x | -3.1 | 15 |
| O=C(COc1ccc2oc(-c3ccccc3)cc(=O)c2c1)Nc1ccccc1 | 1.1 | 2.1 | 4% | -2.7 | 0 | 0 | x | 1 |

(list continues)
Every second line gives: LANA-H2B inh | Bfl-1 A1 inh | Vif A3G | RanGTP-Imp inh | Calb FLC | Beta apoptosis | AF4-AF9 inh | T cruzi repl
O=C(COC(=O)CN1C(=O)C2CC=CCC2C1=O)Nc1cc(C(F)(F)F)ccc1N1CCOCC1 (stereo not drawn)
    -1.3 | 0.2 | 12% | 0.5 | 28 | 2 | x | 9
COc1ccc(CNS(=O)(=O)c2ccc3c(c2)CC(C)N3C(=O)C2CC2)cc1 (stereo not drawn)
    3.5 | u | x | 4.0 | 1 | 3 | -13 | 7
COC(=O)C1=CN(Cc2ccc(OC)c(OC)c2)C=C(C(=O)OC)C1c1cccc(F)c1
    -0.2 | -0.4 | -8% | u | -3 | 5 | -15 | 63*
O=[N+]([O-])c1cc([N+](=O)[O-])c2cc(-c3cccnc3)[nH]c2c1
    -0.7 | 0.0 | x | 0.8 | 15 | 13 | -0.7 | 19
C[C@H]1CCC[C@@]2(O[C@H](CCO)C[C@H](O)[C@H]2O)O1
    0.1 | -0.7 | x | 0.0 | 23 | -11 | -0.5 | 1
COC(=O)c1cc(O)c(OCc2ccccc2)c(O)c1
    0.8 | 0.5 | -4% | 5.8 | -7 | -3 | x | -8
Cc1ccc2cc(CN(CC3CCCO3)S(=O)(=O)c3cccc4nsnc34)c(=O)[nH]c2c1 (stereo not drawn)
    -5.1 | 0.2 | 30%&-5% | 5.5 | 0 | -8 | x | -9
Cc1c(CNC(=O)C2CCC(=O)N(CCc3ccccc3)C2)cnn1C (stereo not drawn)
    -3.5 | 0.0 | -5% | -2.2 | 2 | 0 | -1.9 | -11
COc1ccc(Nc2c(-c3ccc(C)cc3)nc3cnccn23)cc1
    0.6 | -0.2 | 5% | 5.2 | -2 | -1 | u | 7
CS(=O)(=O)c1ccc2nc(NC(=O)Cc3ccccc3)sc2c1
    -0.1 | -0.1 | 1% | -0.6 | -1 | x | -12 | -3
CCSc1nnc(NC(=O)c2ccc(C)o2)s1
    -1.7 | -1.4 | 13% | -2.7 | 14 | 0 | x | -6
CCCSc1nc2sc3c(c2c(=O)n1-c1ccc(OC)cc1)CCN(C)C3
    x | x | -2% | -18 | -1 | x | 6.6 | 57*
COc1ccc(-n2nnnc2-c2ccccc2)cc1
    2.6 | -0.8 | 64% | 3.2 | -6 | x | x | -28
CCOc1ncccc1C(=O)N=c1sccn1C
    -3.8 | u | -11% | 2.7 | 10 | -2 | -1.5 | -1
CCc1ccccc1NC(=S)N1CCN(c2ccccn2)CC1
    10 | -0.3 | 1% | -0.8 | -5 | 4 | 2.7 | -13
CC1=NN(C(=O)c2ccc(Cn3nc(C)c([N+](=O)[O-])c3C)o2)C(O)(C(F)(F)F)C1 (stereo not drawn)
    -12 | 0.1 | 14% | 0.8 | -12 | 7 | -15 | 1
COc1cc(OC)nc(-n2ncc(OC)c(Br)c2=O)n1
    x | -0.3 | 14% | -2.8 | -4 | -2 | 4.2 | 4
O=C1c2cccnc2C(=O)N1Cc1ccc(F)cc1S(=O)(=O)NCc1ccco1
    5.0 | -2.4 | x | 1.1 | 4 | -5 | -1.6 | -16
Cc1ccc(C)c(NC(=S)N2CCC(N(C)CC3CCCO3)CC2)c1 (stereo not drawn)
    0.4 | 0.2 | 0% | 6.5 | -1 | -8 | -9.5 | -3
